Bioassay records as filed in PubChem.
GIV-Gai inh = blocks GIV peptide binding to rat Galpha-i3; percent of control (FP), % (no concentration beside the values); P08753; AID 1224905; 0.42% of 210,000 active; Galpha-i3/FITC-GIV peptide fluorescence polarization, 90 min; hits give low values; scaled: aluminum fluoride 0%, vehicle 100%;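 active = replicate mean at 85% of control or lower, very high polarization wells dropped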;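 also: wells of about 15 µL received 100 nL stock; the first replicate is given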
Target sequence (P08753 whole entry, looked up): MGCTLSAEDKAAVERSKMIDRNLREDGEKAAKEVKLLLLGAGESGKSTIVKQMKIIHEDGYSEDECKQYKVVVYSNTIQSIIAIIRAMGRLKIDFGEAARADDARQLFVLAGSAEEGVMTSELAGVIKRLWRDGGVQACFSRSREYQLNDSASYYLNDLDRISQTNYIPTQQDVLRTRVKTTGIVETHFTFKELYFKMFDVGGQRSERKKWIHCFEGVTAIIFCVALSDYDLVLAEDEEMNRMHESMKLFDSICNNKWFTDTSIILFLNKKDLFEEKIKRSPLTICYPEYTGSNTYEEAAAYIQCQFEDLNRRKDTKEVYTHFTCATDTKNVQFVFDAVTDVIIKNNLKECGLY
* hit, by the source's call. A portion of the library; the hit share may differ from the screen's.

GIV-Gai inh | mol
108 | CC(=O)Nc1ccc(-c2noc(C3CCCN(C(=O)c4ccoc4)C3)n2)cc1 (stereo not given)
102 | N#CC1=C2NC(=O)c3c(sc4c3CCCC4)N2C2=C(C(=O)CCC2)C1c1ccc([N+](=O)[O-])cc1 (stereo not given)
109 | N#CC1=C(N)Oc2n[nH]c(-c3ccncc3)c2C12C(=O)Nc1ccccc12 (stereo not given)
102 | CCCCN(CC)C(=O)Cn1cc(-c2nc(-c3ccc(Cl)cc3)no2)ccc1=O
123 | CC(=O)Oc1ccc(/C=C2/N=C(c3cccc4ccccc34)OC2=O)cc1OC(C)=O
118 | O=C1/C(=C/c2ccc(-c3ccc([N+](=O)[O-])cc3)o2)C=C(c2ccccc2)N1c1ccccc1Br
109 | O=C1CCC(=O)N1CC(=O)N1c2ccccc2Sc2ccc(C(F)(F)F)cc21
116 | CCOC(=O)Cc1nnc2c(Nc3ccccc3F)nc3nonc3n12
108 | COc1ccc2oc(=O)c(C(=O)N3CCc4ccccc4C3)cc2c1
112 | Cc1ccc(-c2noc(CSc3nccn3-c3ccccc3)n2)cc1
102 | CCC(C(=O)NCCc1c[nH]c2ccc(OC)cc12)n1nc(C)c2nn(-c3ccccc3)c(C)c2c1=O (stereo not given)
100 | COc1ccc(Cl)cc1-n1c(N)c(C(N)=O)sc1=S
105 | COCCNC(=O)C1Cc2ccccc2CN1S(=O)(=O)c1ccc(C2CCCCC2)cc1 (stereo not given)
115 | COc1ccccc1-c1nc(-c2ccccc2)c(-c2ccccc2)[nH]1
107 | CC1=NN(c2ccc(C)c(C)c2)C(=O)C12C(c1ccc(Cl)cc1Cl)C21C(=O)N(c2ccc(C)c(C)c2)N=C1C (stereo not given)
106 | CCOC(=O)N1CCN(S(=O)(=O)c2ccc(F)c(C(=O)Nc3ccc(Cl)c(Cl)c3)c2)CC1
106 | CC(C)(C)N1C(c2ccccc2)=NN(c2ccccc2)C1c1cccs1 (stereo not given)
102 | C=CCNC(=O)c1cc(-c2ccccn2)nc2ccc(S(=O)(=O)N3CCOCC3)cc12
95 | Cn1c(=O)c2nc(S(=O)(=O)CCC(=O)O)n(C)c2n(C)c1=O
114 | Cc1cccc(NC(=O)CSc2nnc(-c3ccccc3)c(-c3ccccc3)n2)c1C
98 | CCc1nnc(-c2ccc(S(=O)(=O)N3CCN(CC(C)C)CC3)o2)o1
107 | CCOC(=O)C1=CN(Cc2ccc(Cl)cc2)C=C(C(=O)OCC)C1c1cc(OC)c(OC)cc1OC
100 | CN(C)c1cccc(C(=O)N2CCN(C)c3ccccc32)c1
103 | CN(C)CCCn1c(=O)c2cnc(-c3ccc(Cl)cc3)nc2n(C)c1=O
104 | CCc1nnc(-c2csc(S(=O)(=O)N3CCCC3)c2)o1
103 | Cc1sc2c(=O)n(C3CC3)cnc2c1C(=O)N1CCC2(CC1)OCCO2
99 | CCOC(=O)C1CCN(C(=O)Cc2nnc(-c3sccc3C)o2)CC1
104 | CC(=O)Nc1ccc(NC(=O)CSc2nnc(C)s2)cc1
111 | CCCCNC(=O)CSc1n[nH]c(-c2ccccc2Cl)n1
115 | COc1ccc(C2=NN(C(=O)CSc3nnc(CNC(=O)c4ccco4)n3C)C(c3ccc(F)cc3)C2)cc1 (stereo not given)
105 | COc1ccc(-n2nnnc2C(C)(C)Nc2ccc(C(C)C)cc2)cc1OC
96 | CCCC(=O)Nc1cnc(N2CCNCC2)c(C(=O)N2CCC(C(=O)OCC)CC2)c1
112 | CN1C(=O)CSc2ccc(C(=O)NC3CC3)cc21
107 | CN(Cc1ccccc1)C(=O)CSCc1nc2cccnc2n1C1CCCCC1
104 | CCOc1cc(C2C(C(=O)N3CCOCC3)=C(C)NC3=C2C(=O)CC(C)(C)C3)cc([N+](=O)[O-])c1O (stereo not given)
115 | Cc1cc(C(F)(F)F)c(C#N)c(SCC(=O)C23CC4CC(CC(C4)C2)C3)n1
106 | O=c1/c(=C/c2ccc(-c3cc([N+](=O)[O-])ccc3Cl)o2)sc2nc3ccccc3n12
106 | CC1(C)CC(=O)C2=C(C1)c1c(ccc3ccccc13)NC2c1ccc(OCC(=O)O)cc1 (stereo not given)
97 | CCOc1ccc(-c2ccc(OCCNC(=O)c3cc(C)cc(C)c3)nn2)cc1
101 | O=C(c1ccccc1Cl)N1CCc2c([nH]c3ccccc23)C1c1ccc2c(c1)OCO2 (stereo not given)
102 | CCOc1ccc(C(=O)Nc2c3c(nn2-c2ccc(Cl)cc2)CS(=O)(=O)C3)cc1OCC
95 | COC(=O)c1sccc1NC(=O)N1CCC(N2CCN(Cc3ccc(F)cc3)C(=O)C2=O)CC1
108 | COc1ccc(C2Nc3cccc4cccc(c34)N2)cc1
101 | Cc1cccc(-c2cnc(N3CCC(C(=O)NC4CCCC4)CC3)nc2)c1
106 | CCc1ccc(CN2CCCC2c2c(C)noc2CC)cc1 (stereo not given)
98 | COc1ccc(CCNC(=O)CCC2=NS(=O)(=O)c3ccccc3N2)cc1OC
108 | Cc1cc(N2CCCC2)nc(Nc2ccc(NC(=O)Nc3cccc(Cl)c3)cc2)n1
105 | O=C(c1ccc2c(c1)C1C=CCC1C(c1ccc([N+](=O)[O-])cc1)N2)N1CCOCC1 (stereo not given)
106 | CCOC(=O)CSCc1nc2c(c(=O)[nH]1)C1(CCCC1)Cc1ccccc1-2
98 | Cc1noc(C)c1C1CCCN1C(=O)c1cc(-c2ccccc2Cl)on1 (stereo not given)
101 | CC(=O)OCC1OC(Oc2ccc(C(=O)Cc3ccccc3)c(O)c2)C(OC(C)=O)C(OC(C)=O)C1OC(C)=O (stereo not given)
105 | CCC(=O)N1c2ccccc2NC2=C(C(=O)CC(c3ccccc3)C2)C1c1ccc(C(=O)OC)cc1 (stereo not given)
114 | COc1ccc(OC)c(/C=C2\N=C(c3cc(Br)ccc3OC)OC2=O)c1
112 | CCS(=O)(=O)N1CCCN(C2=NS(=O)(=O)C(c3ccc(F)cc3)=C2C)CC1
108 | Cc1ccc(Nc2nc3nonc3n3cnnc23)c(C)c1
110 | CC1CCN(CN2C(=O)/C(=C\c3ccccc3Cl)SC2=S)CC1
104 | COc1ccc(NC(=O)c2nnc(C3CCN(C(=O)c4cc(OC)cc(OC)c4)CC3)s2)cc1
105 | CCOC(=O)c1sc(NC(=O)c2sc3nc[nH]c(=O)c3c2C)nc1C
101 | CCC(C)NC(=O)Cn1nc2c3sc(N(C)C)nc3ncn2c1=O (stereo not given)
103 | COc1ccc(C2NC(=S)NC(C)=C2C(=O)Nc2ccccc2)c(OC)c1 (stereo not given)

Arranged by value in GIV-Gai inh (lowest first): three of the compounds above.
canonical_smiles,GIV-Gai inh
Cc1noc(C)c1C1CCCN1C(=O)c1cc(-c2ccccc2Cl)on1 (stereo not given),98
CC(=O)OCC1OC(Oc2ccc(C(=O)Cc3ccccc3)c(O)c2)C(OC(C)=O)C(OC(C)=O)C1OC(C)=O (stereo not given),101
COc1ccc(C2Nc3cccc4cccc(c34)N2)cc1,108

(further entries)
GIV-Gai inh | mol
101 | CCSc1sc(CC)cc1C1C(C(=O)Nc2ccc(C)cn2)=C(C)NC2=C1C(=O)CCC2 (stereo not given)
102 | CC1CCN(C(=O)C2CCCN(c3ncc(-c4cccc(F)c4)cn3)C2)CC1 (stereo not given)
107 | Cc1cc(=O)n2[nH]c(C3CC3)nc2n1
110 | Cc1ccc(S(=O)(=O)c2cnc(N3CCN(c4ccccn4)CC3)nc2N)cc1
105 | Cc1onc(-c2ccccc2Cl)c1C(=O)Nc1sc2c(c1C(N)=O)CCC(C(C)(C)C)C2 (stereo not given)
109 | O=[N+]([O-])c1ccc(C2N(c3ccc(Cl)cc3)CCN2c2ccc(Cl)cc2)cc1
106 | COc1ccc(NC(=O)Cc2c(Sc3ccccc3)c3ccccc3n2C)cc1
102 | Clc1ccccc1CN=C1Nc2ccccc2NC12CCCCCC2
108 | Cc1ccc(S(=O)(=O)c2cnc(N3CCC(C(N)=O)(N4CCCCC4)CC3)nc2N)cc1
105 | Cc1cccc(CN2CC=C(c3noc(CCC(=O)N4CCC(N5CCCCC5)CC4)n3)CC2)c1
105 | CS(=O)(=O)NCc1nnc(C(=O)Nc2ccc(F)cc2)s1
104 | COc1cccc(C(=O)NCC(=O)N/N=C/c2ccc([N+](=O)[O-])s2)c1
107 | O=C(Nc1ccc(F)cc1)N1CCC2(CC1)Nc1ccccc1-n1cccc12
98 | CCc1cc(C2CCCN2C(=O)c2ccnn2CC)on1 (stereo not given)
111 | CCOc1ccccc1N(C)C(=O)c1cc(S(=O)(=O)NCCc2ccc(OC)c(OC)c2)ccc1F
110 | N#CCSc1nc2cc(C(=O)NCc3ccco3)ccc2c2nc3ccccc3n12
103 | O=C1CN(Cc2ccccc2F)S(=O)(=O)c2ccccc2N1Cc1ccc(F)cc1
101 | CCN(CC)c1ccc(NS(=O)(=O)c2cc(-c3nc(C)c(C)s3)sc2C)c(C)c1
124 | COc1ccccc1-n1c(=S)[nH]c2c(sc(=S)n2-c2ccc(C)c(C)c2)c1=O
111 | COc1cc(C2CC(=O)Nc3c2ccc2ccccc32)cc(OC)c1OC (stereo not given)
105 | COc1ccc(Br)cc1C1C(N2C(=O)c3cccc([N+](=O)[O-])c3C2=O)C(=O)N1c1ccc(C)c(Cl)c1 (stereo not given)
133 | COc1ccccc1N1C(=O)/C(=C/c2ccc(-c3ccc(Br)cc3)o2)C=C1c1ccccc1
281 | Cc1sc2c(c1C)C(=O)NC1(N2)C(=O)N(Cc2ccccc2F)c2ccccc21 (stereo not given)
109 | Cc1ccc(-c2csc(Cc3nc(-c4ccc(F)cc4)no3)n2)cc1
108 | CCc1cc(-c2csc(S(=O)(=O)Nc3ccc(F)c(Cl)c3)c2)on1
101 | CC1(C)OC(=O)N(CCC#N)C1(C)O (stereo not given)
103 | CCOc1ccc(-c2[nH]nc3c2C(c2cn[nH]c2-c2ccc(F)cc2)C(C#N)=C(N)O3)cc1 (stereo not given)
102 | CCCNC(=O)c1cn(C)nc1S(=O)(=O)N1CCC(C)CC1
105 | O=C1c2c(sc3c2CCCC3)NC2(C(=O)N(Cc3c(Cl)cccc3Cl)c3ccccc32)N1CCc1ccccc1 (stereo not given)
101 | CCCOc1ccc(C2NC(=O)NC(C)=C2C(=O)OCc2ccc3c(c2)OCO3)cc1 (stereo not given)

Structural class, those above with a COOH group.
GIV-Gai inh | mol
95 | Cn1c(=O)c2nc(S(=O)(=O)CCC(=O)O)n(C)c2n(C)c1=O
106 | CC1(C)CC(=O)C2=C(C1)c1c(ccc3ccccc13)NC2c1ccc(OCC(=O)O)cc1 (stereo not given)

In the list so far, two contain a CF3 group.
GIV-Gai inh | mol
109 | O=C1CCC(=O)N1CC(=O)N1c2ccccc2Sc2ccc(C(F)(F)F)cc21
115 | Cc1cc(C(F)(F)F)c(C#N)c(SCC(=O)C23CC4CC(CC(C4)C2)C3)n1

New compounds follow
GIV-Gai inh | mol
113 | Nn1cnn2c(SCC(=O)Nc3nnc(SCC(=O)Nc4ccc(Cl)cc4)s3)nnc12
104 | Oc1ccc(Br)cc1-c1ccncn1
109 | O=[N+]([O-])c1c(NCCCO)cc(N2CCOCC2)c2nonc12
108 | CC(=O)NC1C(OCc2ccccc2)OC(C(N)=O)C(OC(C)=O)C1OC(C)C(=O)O (stereo not given)
97 | CCOc1ccc2nc(-n3nc(C)c4c3NC(=O)CC4c3c(C)sc4ccccc34)sc2c1 (stereo not given)
104 | Cc1ccc(C23CC4CC(CC(C(=O)Nc5cccc(C)c5C)(C4)C2)C3)cc1
99 | C=CCOc1ccc(C2CC(=O)Nc3c2c(C)nn3-c2ccc3nnc(C)n3n2)cc1OC (stereo not given)
100 | CCN1c2ccccc2NC2=C(C(=O)CC(C)(C)C2)C1c1ccccc1OC (stereo not given)
103 | CCN1CCN(c2ncnc3sc(C(=O)NC4CCCCC4)c(C)c23)CC1
109 | CC(=O)C1=NN(c2ccccc2C)C2(S1)SC(c1ccccc1C)(c1ccccc1C)c1ccccc12 (stereo not given)
104 | COCCN1C(=O)C(=O)/C(=C(/O)c2ccccc2)C1c1ccccc1OC (stereo not given)
103 | CCCCCOc1ccc(NC(=O)C2OC3OC(C)(C)OC3C3OC(C)(C)OC23)cc1 (stereo not given)
108 | Cc1ccc(CNC(=O)C2(C)CCCN(C(=O)c3cccc(Br)c3)C2)cc1 (stereo not given)
118 | CC1=C(C(=O)OCC2CCCO2)C(c2cccc(OCc3ccccc3)c2)C2=C(CC(C)(C)CC2=O)N1 (stereo not given)
104 | COCC(=O)N1CCN(c2cc(=O)n(C(C)C)c(=O)n2C(C)C)CC1
109 | CCOC(=O)c1[nH]c(C)c(CCC(=O)NCCN(C)C)c1C
274 | Cc1cc(C)cc(S(=O)(=O)N2CCC3(CC2)NCCN=C3NCc2ccc(F)cc2)c1
108 | CCC1CCCCN1C(=O)CSc1nc(=O)c2c(C(=O)OC)cc(C)nc2n1C1CC1 (stereo not given)
103 | CCCN1CCN(C(=O)c2sc3ncnc(N(CC)CC)c3c2C)CC1
108 | CC(C)(C)NCC(O)Cn1c2ccc(Br)cc2c2cc(Br)ccc21 (stereo not given)
105 | CCCSc1nnc2c(n1)[nH]c1c(C)cccc12
101 | Cc1nc2c(nc(SCc3ccc(Cl)cc3)n2C)c(=O)[nH]1

Another view of some results above.
canonical_smiles	GIV-Gai inh
CCC1CCCCN1C(=O)CSc1nc(=O)c2c(C(=O)OC)cc(C)nc2n1C1CC1 (stereo not given)	108
CC(=O)NC1C(OCc2ccccc2)OC(C(N)=O)C(OC(C)=O)C1OC(C)C(=O)O (stereo not given)	108
CC1=C(C(=O)OCC2CCCO2)C(c2cccc(OCc3ccccc3)c2)C2=C(CC(C)(C)CC2=O)N1 (stereo not given)	118
Cc1ccc(C23CC4CC(CC(C(=O)Nc5cccc(C)c5C)(C4)C2)C3)cc1	104
CC(=O)C1=NN(c2ccccc2C)C2(S1)SC(c1ccccc1C)(c1ccccc1C)c1ccccc12 (stereo not given)	109
